Vaccinia stage: Vaccinia orthopox stage-specific inhibition; Vaccinia-infected cells, mCherry/Venus stage reporter fluorescence; hits give low values; some inactives read as strong as hits; activity change (mCherry), % (no concentration beside the values); 89,000 compounds, 0.01% hits;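 active means mCherry past -33% and 40 or more points under the early reporter, replicates agreeing; inconclusive means past -33% without that gap or agreement; tested in A549 cells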;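 further: scaled between vehicle wells and reference inhibitor wells; 23 nL library stock went into each well; one replicate is shown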
Vaccinia stage Venus: second read-out of Vaccinia stage, no call of its own (marks repeat the call); activity change (Venus), %; measured here: Venus reporter, other viral stage;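 negative = less Venus signal; first of two replicates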
An asterisk follows results filed as active; ? = inconclusive; . = not tested or not shown.

Below each compound – Vaccinia stage | Vaccinia stage Venus
CN1C(=O)c2cc(NC(=O)C3CCCCC3)ccc2OC[C@@H]2O[C@@H](CC(=O)NCC3CCCCC3)CC[C@H]21
  -16.0 | -17.9
Cc1cc(C(=O)Nc2cccc3c2O[C@@H](CN(C)C(=O)Nc2ccc4c(c2)OCO4)[C@H](C)CN([C@@H](C)CO)C3=O)n(C)n1
  24.4 | 21.0
C/C=C/c1ccc([C@H]2[C@@H](CO)N(C(=O)C3CCCCC3)C23CN(C(=O)NC(C)C)C3)cc1
  -9.9 | -7.7
C[C@@H]1CN([C@@H](C)CO)C(=O)Cc2cc(NC(=O)C3CC3)ccc2O[C@@H]1CN(C)S(=O)(=O)c1cccs1
  14.2 | 12.8
CCC(=O)N(C)C[C@@H]1Oc2ncc(C3=CCCC3)cc2C(=O)N([C@H](C)CO)C[C@H]1C
  7.1 | 3.4
C[C@H]1CN([C@@H](C)CO)C(=O)Cc2cc(NC(=O)CCCCCC(=O)Nc3ccccc3N)ccc2O[C@@H]1CN(C)Cc1ccc2c(c1)OCO2
  5.4 | 4.5
CCCN1C[C@H](C)[C@H](OC)CN(C)C(=O)c2ccc(NS(=O)(=O)c3ccccc3)cc2OC[C@@H]1C
  0.2 | 8.0
CC(C)NC(=O)Nc1ccc2c(c1)CC(=O)N([C@H](C)CO)C[C@H](C)[C@@H](CN(C)Cc1ccc(Oc3ccccc3)cc1)O2
  -16.0 | -15.8
C[C@@H]1CCCCO[C@H](CN(C)C(=O)CCC(F)(F)F)[C@@H](C)CN([C@@H](C)CO)C(=O)c2cc(NS(=O)(=O)c3ccc(F)cc3)ccc2O1
  -19.2 | -10.8
C[C@H](CO)N1C[C@H](C)[C@H](CN(C)Cc2ccc(C(=O)Nc3ccccc3N)cc2)OCc2cnnn2CCCC1=O
  1.8 | 1.7
Cc1ccc(S(=O)(=O)N(C)C[C@@H]2Oc3c(NS(=O)(=O)c4ccccc4)cccc3C(=O)N([C@@H](C)CO)C[C@H]2C)cc1
  7.6 | 2.1
CC(C)NC(=O)Nc1ccc2c(c1)CC(=O)N([C@@H](C)CO)C[C@@H](C)[C@@H](CN(C)C(=O)NC(C)C)O2
  11.0 | 7.4
COc1cccc(CNC(=O)C[C@H]2C=C[C@@H](NC(=O)C3CCOCC3)[C@H](CO)O2)c1
  12.0 | 4.4
CO[C@H]1CN(C)C(=O)c2ccc(NC(=O)C3CC3)cc2OC[C@@H](C)NC[C@@H]1C
  12.1 | 9.9
COc1ccc(-c2ccc3c(c2)[C@H]2[C@H](CCN2C(=O)Cc2cccnc2)[C@H](CO)N3C)cc1
  ? | .

Next part:
Below each compound – Vaccinia stage | Vaccinia stage Venus
O=C(Nc1ccc(F)cc1)N[C@@H]1CC[C@@H](CCNS(=O)(=O)c2cccc(Cl)c2)O[C@@H]1CO
  -13.9 | -15.4
CNC[C@@H]1Oc2ccc(NS(=O)(=O)c3ccc(OC)cc3)cc2C(=O)N([C@H](C)CO)C[C@H]1C
  5.6 | 4.3
CCN(C[C@@H]1[C@@H](c2ccccc2)[C@H](CO)N1CC1CCCC1)C(C)=O
  -1.4 | -2.5
C[C@H](CO)N1C[C@H](C)[C@@H](CN(C)C(=O)CN(C)C)Oc2cc(-c3cncnc3)ccc2S1(=O)=O
  1.5 | -0.5
Cc1noc(C)c1NC(=O)Nc1ccc2c(c1)C(=O)N([C@@H](C)CO)C[C@@H](C)[C@@H](CN(C)S(=O)(=O)c1ccc(F)cc1)OCCCC[C@H](C)O2
  21.9 | 6.1
O=C(C[C@H]1C=C[C@H](NC(=O)CCN2CCCCC2)[C@H](CO)O1)Nc1ccccc1
  -3.5 | 4.5
CN(C)C(=O)C[C@@H]1CC[C@H]2[C@@H](COC[C@@H](O)CN2CC2CC2)O1
  -0.3 | 5.2
C[C@@H]1CN([C@H](C)CO)C(=O)c2cccc(NS(C)(=O)=O)c2O[C@H]1CN(C)Cc1ccc(C(F)(F)F)cc1
  -0.1 | -4.2
CCC(=O)N1[C@@H]2c3cccc(=O)n3C[C@H]1[C@H](CO)[C@H]2C(=O)NC1CCCC1
  11.8 | 6.6
COc1cccc(-c2ccc3c(c2)O[C@H](CN(C)C(=O)C2CCC2)[C@H](C)CN([C@@H](C)CO)S3(=O)=O)c1
  ? | .
COc1ccc2c3c([nH]c2c1)[C@H](CO)N(C(=O)NC(C)C)CC31CN(C(=O)NC(C)C)C1
  19.2 | 10.2
CCCC#Cc1cnc2c(c1)C(=O)N([C@@H](C)CO)C[C@H](C)[C@H](CN(C)C(=O)C1CC1)O2
  6.6 | 2.2
C[C@@H]1CCCCO[C@@H](CN(C)C(=O)c2ccccc2)[C@@H](C)CN([C@H](C)CO)C(=O)c2cc(NC(=O)c3ccccc3)ccc2O1
  33.5 | 7.9
C[C@@H]1CN([C@H](C)CO)C(=O)c2cc(NC(=O)Cc3cn(C)c4ccccc34)ccc2O[C@H]1CN(C)C(=O)Nc1ccc2c(c1)OCO2
  11.9 | 12.3
CCCNC(=O)N1C[C@H](O)COC[C@H]2O[C@@H](CC(=O)OC)CC[C@@H]21
  -1.2 | -4.1

The list goes on:
Below each compound – Vaccinia stage | Vaccinia stage Venus
CCS(=O)(=O)NCC[C@H]1CC[C@H](NC(=O)Cc2ccccn2)[C@H](CO)O1
  2.7 | 6.5
COc1ccccc1C#Cc1ccc2c(c1)[C@@H]1[C@@H](CCN1C(=O)CN1CCOCC1)[C@H](CO)N2
  -21.5 | -20.5
C[C@@H]1CN([C@@H](C)CO)C(=O)c2cc(C#CC(C)(C)O)cnc2O[C@H]1CN(C)C(=O)C1CCOCC1
  18.9 | 7.4
CCS(=O)(=O)N1CCC2(CC1)CN(C(=O)c1cccc(F)c1)[C@H](CO)c1c2c2ccc(OC)cc2n1C
  -7.8 | -5.4
CO[C@H]1CC[C@@H]2CCOc3c(C#N)cccc3C(=O)N(C)CCCC(=O)N(C)C[C@@H]1O2
  5.9 | 4.0
CC(C)CN(C[C@H]1[C@H](c2ccccc2)[C@@H](CO)N1C(=O)C1CCC1)C(=O)C1CC1
  0.0 | 3.8
O=C(N[C@H]1CC[C@@H](CCNC(=O)C2CC2)O[C@@H]1CO)c1ccncc1
  5.2 | -1.2
CN1CCN(C(=O)C[C@H]2C[C@@H]3c4cc(NC(=O)CC5CC5)ccc4O[C@@H]3[C@@H](CO)O2)CC1
  7.9 | 6.7
COc1cccc(-c2cnc3c(c2)C(=O)N([C@@H](C)CO)C[C@@H](C)[C@H](CN(C)Cc2ccc(F)cc2)O3)c1
  ? | .
COc1ccc(S(=O)(=O)Nc2ccc3c(c2)C(=O)N([C@H](C)CO)C[C@H](C)[C@@H](CN(C)S(=O)(=O)c2cn(C)cn2)OCCCC[C@H](C)O3)cc1
  42.9 | 22.0
CO[C@H]1CN(C)C(=O)c2cc(NC(=O)C3CCCCC3)ccc2OC[C@H](C)NC[C@@H]1C
  10.5 | 7.9
COc1ccc2c3c([nH]c2c1)[C@H](CO)N(C(=O)c1cccnc1)CC31CN(C(=O)c2cccnc2)C1
  37.9 | 15.4
Cc1ccccc1S(=O)(=O)N1[C@@H]2Cn3c(cccc3=O)[C@H]1[C@@H](C(=O)N1CCOCC1)[C@@H]2CO
  2.2 | -6.3
COc1ccc(S(=O)(=O)N[C@H]2C=C[C@@H](CC(=O)NCc3ccccc3F)O[C@@H]2CO)cc1
  3.5 | 6.2
Cc1ccc(S(=O)(=O)N(C)C[C@@H]2Oc3ccc(NC(=O)CCCN(C)C)cc3C(=O)N([C@H](C)CO)C[C@@H]2C)cc1
  -8.0 | -1.2

Grouped by structure, the compounds so far containing an NH in an aromatic ring.
Below each compound – Vaccinia stage | Vaccinia stage Venus
COc1ccc2c3c([nH]c2c1)[C@H](CO)N(C(=O)NC(C)C)CC31CN(C(=O)NC(C)C)C1
  19.2 | 10.2
COc1ccc2c3c([nH]c2c1)[C@H](CO)N(C(=O)c1cccnc1)CC31CN(C(=O)c2cccnc2)C1
  37.9 | 15.4

Single records, from the list above. Order of screens: Vaccinia stage, Vaccinia stage Venus
`CO[C@H]1CC[C@@H]2CCOc3c(C#N)cccc3C(=O)N(C)CCCC(=O)N(C)C[C@@H]1O2` is listed as 5.9, 4.0
`COc1cccc(-c2cnc3c(c2)C(=O)N([C@@H](C)CO)C[C@@H](C)[C@H](CN(C)Cc2ccc(F)cc2)O3)c1` is listed as ?, .
`COc1ccc(S(=O)(=O)N[C@H]2C=C[C@@H](CC(=O)NCc3ccccc3F)O[C@@H]2CO)cc1` is listed as 3.5, 6.2
`CO[C@H]1CN(C)C(=O)c2cc(NC(=O)C3CCCCC3)ccc2OC[C@H](C)NC[C@@H]1C` is listed as 10.5, 7.9
`O=C(N[C@H]1CC[C@@H](CCNC(=O)C2CC2)O[C@@H]1CO)c1ccncc1` is listed as 5.2, -1.2

Next part.
Below each compound – Vaccinia stage | Vaccinia stage Venus
CO[C@H]1CN(C)C(=O)c2ccc(NC(=O)NC(C)C)cc2OC[C@H](C)N(Cc2ccccc2)C[C@H]1C
  ? | .
OC[C@@H]1[C@H]2c3ccccc3OC1(CO)N=C1SCc3ccccc3CN12
  9.7 | 9.5
COc1ccc(NC(=O)Nc2cccc3c2O[C@H](CN(C)Cc2ccc(C(=O)O)cc2)[C@H](C)CN([C@@H](C)CO)C3=O)cc1
  7.9 | 1.0
C[C@@H]1CN([C@H](C)CO)C(=O)Cc2cc(NC(=O)Nc3ccc4c(c3)OCO4)ccc2O[C@@H]1CN(C)Cc1ccccc1
  -29.5 | -19.9
C/C=C/c1cnc2c(c1)C(=O)N([C@H](C)CO)C[C@@H](C)[C@H](CN(C)C(=O)Cc1ccccn1)O2
  13.3 | -1.0
Cc1noc(C)c1NC(=O)Nc1ccc2c(c1)C(=O)N([C@H](C)CO)C[C@@H](C)[C@@H](CN(C)C(=O)Nc1ccc(F)cc1)O2
  4.9 | 9.8
C[C@@H]1CN([C@H](C)CO)C(=O)c2cccc(NC(=O)Nc3ccc(F)cc3)c2O[C@H]1CN(C)C(=O)Nc1ccccc1
  -7.6 | 1.1
COc1ccc(S(=O)(=O)N(C)C[C@@H]2Oc3ccc(NC(=O)Cc4ccccc4)cc3C(=O)N([C@@H](C)CO)C[C@H]2C)cc1
  9.8 | 0.7
C[C@@H]1CCCCO[C@H](CN(C)Cc2ccc(C(=O)O)cc2)[C@@H](C)CN([C@H](C)CO)C(=O)c2cc(NS(=O)(=O)c3ccc(F)cc3)ccc2O1
  31.4 | 16.3
O=C(C1CCC1)N1CCCCN2[C@H](CO)[C@H](c3ccc(-c4ccncc4)cc3)[C@@H]2C1
  11.6 | 0.6
O=C(NC1CCCCC1)N[C@H]1CC[C@H](CCNS(=O)(=O)c2ccccc2)O[C@H]1CO
  2.4 | 1.5
C[C@@H]1CN([C@@H](C)CO)C(=O)c2cc(NC(=O)C3CCCCC3)ccc2O[C@H]1CN(C)C(=O)Nc1ccc2c(c1)OCO2
  -4.3 | -4.2
C[C@H](CO)N1C[C@H](C)[C@H](CN(C)Cc2ccncc2)Oc2ncc(C#Cc3cccc(F)c3)cc2C1=O
  2.4 | 4.6
CCC(=O)N(C)C[C@@H]1Oc2ncc(C#Cc3cccnc3)cc2C(=O)N([C@@H](C)CO)C[C@@H]1C
  15.0 | 4.3
CCCNC(=O)N(C)C[C@H]1Oc2ncc(-c3cccc(C#N)c3)cc2C(=O)N([C@H](C)CO)C[C@@H]1C
  21.4 | 0.7

(listing goes on)
Below each compound – Vaccinia stage | Vaccinia stage Venus
C[C@@H]1CN([C@H](C)CO)C(=O)c2cc(NC(=O)Cn3cnnn3)ccc2O[C@@H]1CN(C)Cc1ccc(Cl)c(Cl)c1
  7.3 | 12.0
C[C@@H]1CCCCO[C@H](CN(C)C(=O)NC2CCCCC2)[C@@H](C)CN([C@@H](C)CO)C(=O)c2cc(NC(=O)Nc3ccc(C(F)(F)F)cc3)ccc2O1
  -4.7 | 9.7
Cc1ccccc1S(=O)(=O)N[C@H]1CC[C@@H](CCNS(=O)(=O)c2cccc(F)c2)O[C@H]1CO
  -9.8 | 2.2
C[C@H]1CN([C@@H](C)CO)C(=O)c2cccc(NC(=O)CCCCCC(=O)Nc3ccccc3N)c2O[C@@H]1CN(C)S(=O)(=O)c1ccccc1
  9.8 | 13.5
C[C@@H]1CCCCO[C@H](CN(C)S(C)(=O)=O)[C@@H](C)CN([C@@H](C)CO)C(=O)c2cc(NS(=O)(=O)c3ccc(F)cc3)ccc2O1
  18.6 | 5.4
COc1ccc(S(=O)(=O)N(C)C[C@H]2Oc3c(NC(=O)Nc4ccc(C(F)(F)F)cc4)cccc3C(=O)N([C@H](C)CO)C[C@H]2C)cc1
  -27.2 | -17.2
COCC(=O)N(C)C[C@@H]1Oc2cc(-c3ccccc3)ccc2S(=O)(=O)N([C@H](C)CO)C[C@@H]1C
  -1.8 | -6.4
CN1[C@@H]2c3ccc(/C=C/c4ccccc4)c(=O)n3C[C@H]1[C@H](CO)[C@H]2C(=O)NC1CCCCC1
  3.5 | 7.1
CCC(=O)Nc1ccc2c(c1)OC[C@@H](C)N(C(=O)CN1CCOCC1)C[C@@H](C)[C@@H](OC)CN(C)C2=O
  -7.7 | -1.6
C[C@H]1CN([C@@H](C)CO)C(=O)c2cc(NC(=O)CCCN(C)C)ccc2O[C@H]1CN(C)S(C)(=O)=O
  37.9 | 25.8
CC(C)NC(=O)Nc1ccc2c(c1)C(=O)N([C@@H](C)CO)C[C@H](C)[C@H](CN(C)C(=O)NC(C)C)OCCCC[C@@H](C)O2
  22.0 | 14.7
COc1ccc(NC(=O)Nc2ccc3c(c2)CC(=O)N([C@@H](C)CO)C[C@H](C)[C@@H](CN(C)S(=O)(=O)c2ccc(C)cc2)O3)cc1
  19.5 | 4.5
C[C@H](CO)N1C[C@H](C)[C@@H](CN(C)C(=O)[C@H](Cc2ccccc2)N(C)C)OCc2ccccc2-c2ccccc2C1=O
  6.2 | -4.8
C[C@H](CO)N1C[C@H](C)[C@H](CN(C)CC2CCOCC2)Oc2ncc(C#Cc3cccc(F)c3)cc2C1=O
  -15.8 | -7.8
CC(C)C#Cc1cnc2c(c1)C(=O)N([C@H](C)CO)C[C@H](C)[C@H](CN(C)C(=O)c1cccc(F)c1)O2
  5.6 | 2.0

Screening results from PubChem.

The list is partial; the hit share may differ from the screen's.
